Source: PubChem BioAssay
Rce1 inhib = yeast Rce1p protease inhibitors, primary screen, biochemical, fluorescence, cell-free homogeneous | CAAX prenyl protease 2 (Saccharomyces cerevisiae (strain ATCC 204508 / S288c)), Q03530 | yeast membranes, quenched prenylated peptide cleavage fluorescence | calls only | 290,000 compounds, 0.27% hits | AID 2563, 2010;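 active = fall in fluorescence gain of 50% or more versus controls, with final raw signal at or below 3038400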;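 also: plate controls were neutral control wells for no effect and wells lacking membranes for full effect; tested at 10 µM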
Yeast UUG start = modulators of yeast start codon fidelity, primary screen, whole organism, S. cerevisiae, single point, plate reader; S. cerevisiae UUG-firefly luciferase reporter, luminescence/redox ratio; activity score, % at 18.7 µM; 350,000 compounds, 0.13% hits;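 active = replicate mean at a twofold rise or more, about +100% in these data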;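 also: firefly luciferase made from a UUG start codon reports start codon fidelity; reporter light over untreated wells divided by growth signal over untreated wells; some hits fall short of that in this replicate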
eIF4H FP inh = human eIF4H binding inhibitors, primary screen, translation initiation inhibitor project, biochemical, uHTS, fluorescence polarization. Eukaryotic translation initiation factor 4H (Homo sapiens), Q15056. eIF4H fluorescence polarization binding assay. inhibition, % at 35 µM. 290,000 compounds, 0.94% hits. AID 2012, 2009;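 active = 50% or more with normal probe brightness, or confirmed in later tests; about a fifth of its hits are not listed in these tables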;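 also: calls also rest on retests at 20 µM and on dose response follow-up; 0% = protein and probe with vehicle and 100% = probe without protein; strong numbers were not always called active; many hits fall short of the cut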
PABP FP inh = PABP poly(A) RNA binding inhibitors, primary screen, biochemical, fluorescence polarization, uHTS | Polyadenylate-binding protein 1 (Homo sapiens), P11940 | inhibition, % at 35 µM | 290,000 compounds, 1% hits;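 active = 50% or more with normal probe brightness, or confirmed in later tests; about a fifth of its hits are not listed in these tables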;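 also: calls also rest on retests at 20 µM and on dose response follow-up; controls were probe without protein and protein plus probe with vehicle; some compounds called inactive have numbers as strong as hits; many hits fall short of the cut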
Target sequence (P11940 whole entry, looked up): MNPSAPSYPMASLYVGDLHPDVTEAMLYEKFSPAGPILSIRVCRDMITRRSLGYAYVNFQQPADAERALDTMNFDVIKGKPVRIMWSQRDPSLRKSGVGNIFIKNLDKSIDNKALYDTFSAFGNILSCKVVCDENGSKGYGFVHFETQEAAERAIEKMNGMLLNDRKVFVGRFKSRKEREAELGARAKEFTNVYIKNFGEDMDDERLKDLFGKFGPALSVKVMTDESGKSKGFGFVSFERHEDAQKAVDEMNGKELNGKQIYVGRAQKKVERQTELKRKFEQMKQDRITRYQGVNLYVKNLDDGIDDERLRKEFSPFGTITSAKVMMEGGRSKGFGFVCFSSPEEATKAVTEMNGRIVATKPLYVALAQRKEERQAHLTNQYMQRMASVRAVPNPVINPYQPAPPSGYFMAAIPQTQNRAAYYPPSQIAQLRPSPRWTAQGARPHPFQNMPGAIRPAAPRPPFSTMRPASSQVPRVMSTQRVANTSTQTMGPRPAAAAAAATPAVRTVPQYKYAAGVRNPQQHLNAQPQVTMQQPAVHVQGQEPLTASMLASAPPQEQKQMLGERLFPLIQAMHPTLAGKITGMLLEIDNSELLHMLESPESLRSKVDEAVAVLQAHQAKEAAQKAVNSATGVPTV
Env fusion inh = inhibitors of HIV-1 Env-driven cell-cell fusion, primary screen, HeLa-JRFL effector, CEM21 target cells, luciferase | inhibition, % at 12.3 µM | 360,000 compounds, 1.1% hits | AID 651610, 2012;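 active = mean replicate inhibition score of at least 50 and every replicate individually at or above 50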;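 also: 0% = plate neutral controls and 100% = maraviroc near 300 nM; one replicate is shown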
CSC inhib = cancer stem cell viability inhibitors, primary screen, luminescence | cancer stem cell-like cells viability | inhibition, % at 7.5 µM | 300,000 compounds, 1.1% hits | AID 2717, 2010;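 active = mean at 75% or more and at least half the replicates too; tested in HMLE shEcad cells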;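 also: 0% = median of negative and 100% = median of positive control wells; the first replicate is given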
MT1-MMP act inh = blockers of MT1-MMP proenzyme processing, primary screen, HT1080 RFP-PRO-GFP cells, GFP/RFP fluorescence | GFP/RFP ratio fluorescence, overnight; percent of plate control window, DMSO zero | GFP/RFP ratio change, % at 20 µM | 360,000 compounds, 0.061% hits | AID 651647, 2012;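 active = GFP/RFP ratio change of at least 30% with cell ATP level not reduced by more than half and red fluorescence within 50% of control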; also: strong numbers were not always called active
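Assay system: HT1080 RFP-PRO-GFP cells | Dosing: 20 µM single dose, 1% DMSO | Incubation: Cells overnight before dosing, compound overnight, 37 °C, 5% CO2 | Evaluation: GFP/RFP fluorescence ratio | Control set: DMSO-only wells and HT1080 RFP-L50D-GFP cell wells as references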
MT1-MMP act inh RFP = second read-out of MT1-MMP act inh, no call of its own (marks repeat the call); RFP signal change, %; measured here: RFP expression control read;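 0 = vehicle wells; hits needed this value within 50% of zero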
An asterisk follows results filed as active; i = inactive; nt = not tested or not shown; & = joins results of further samples; [ ] = another dose, or the depositor's remark.

Values run as follows: Rce1 inhib, Yeast UUG start, eIF4H FP inh, PABP FP inh, Env fusion inh, CSC inhib, MT1-MMP act inh, MT1-MMP act inh RFP
CC1=C(C)CC(C(=O)NCCc2ccccc2)C(C(=O)O)C1 (stereo not drawn)
    i, -9, 2, -4, -9, -17, 1, 3
O=C(Nc1ccccc1N1CCCC1)c1cc(=O)[nH]c2ccccc12
    nt, 5, nt, nt, -11, nt, -2, -3
CCCN(CC(=O)Nc1ccc(NC(C)=O)cc1)CC(=O)Nc1ccc(F)c(F)c1F
    nt, 5, -6, -4, 1, 8, 6, 2
CCOc1ccc(N2C(=O)CC(n3nc(C)cc3C)C2=O)cc1 (stereo not drawn)
    i, -15, -1, -7, nt, 7, 2, 1
COC(=O)C=CSC(=S)C1CCCC1=N (stereo not drawn)
    nt, -13, nt, nt, -6, nt, -3, 3
CC(=O)c1ccccc1OCCOc1ccccc1C(C)=O
    i, -13, 4, -13, 13, 10, -1, -7
CC(=O)N1CC(C)Sc2ccc(S(=O)(=O)N3CCCCC3)cc21 (stereo not drawn)
    i, -9, -8, -4, -2, -4, 3, -4
CC(Sc1nnc(Cn2c(=O)sc3ccccc32)n1C)c1ccccc1 (stereo not drawn)
    i, -1, 10, -5, 5, 16, 5, 1
O=C(Nc1ccccc1C(=O)NCc1ccccc1)c1ccccc1Br
    i, -7, 5, -9, -25, -9, -2, -4
COc1ccc(F)c(CN2CCCC(CNS(=O)(=O)c3cccc4cccnc34)C2)c1 (stereo not drawn)
    i, -9, 5, -2, 0, -7, 0, -1
O=C(Nc1cccc(-c2nc3ncccc3o2)c1)c1cc2ccccc2o1
    i, -9, 2, 8, -54, 0, 1, -6
O=C(CN(C(=O)c1csnn1)c1ccccc1F)NC1CCCCC1
    i, -12, -16, 11, -11, -2, 3, 4
Cc1[nH]c2ccccc2c1C(=O)C(=O)Nc1ccc2c(c1)OCCO2
    i, -7, -11, -7, -25, -8, -1, 2
O=C1c2ccccc2N2C(=O)c3ccccc3[C@H]2N1c1ccccc1
    i, 2, -11, 0, nt, -9, -3, -1
CSc1cccc(NC(=O)C2CCN(S(=O)(=O)c3cnc[nH]3)CC2)c1
    i, -36, -5, 0, -5, -3, -2, -1
CCOc1cc(S(=O)(=O)N2CCN(c3ccc(F)cc3)CC2)c(OCC)cc1-n1cnnn1
    i, -18, -1, 8, -95, 9, 7, 5
O=C(Nc1ccc(Cl)cc1)C1Cc2c(-c3ccccc3Oc3ccccc3)ccnc2O1 (stereo not drawn)
    nt, -17, nt, nt, -14, nt, -13, -17
O=C(O)CC(NC(=O)C12CC3CC(CC(C3)C1)C2)c1cccc([N+](=O)[O-])c1 (stereo not drawn)
    i, -13, -3, -4, -8, -13, -2, 5
CC1Cc2ccccc2N1C(=O)Cn1c(=O)oc2cc(S(=O)(=O)NC3CCCC3)ccc21 (stereo not drawn)
    i, -10, -8, -3, -14, -8, -4, -11
O=S(=O)(/N=C(/Nc1cccnc1Cl)c1ccccc1)c1ccccc1
    nt, -5, nt, nt, nt, 24, -1, 1
CC(C)N1CCN(Cc2ccc(-c3ccccc3)cc2)CC1CCO (stereo not drawn)
    i, -8, -18, -12, -5, 54, 0, 0
CC(C)CC1=NN(C(=O)c2ccncc2)C(O)(C(F)(F)F)C1 (stereo not drawn)
    i, -9, -5, -5, 6, 5, -1, 3
COc1ccc(N(C=O)C(C(=O)Nc2c(C)cccc2C)c2ccccc2)cc1 (stereo not drawn)
    i, nt, nt, nt, -1, 9, 4, 2
COc1ccc(C2=NOC(C(=O)Nc3ccc4c(c3)OCO4)C2)cc1 (stereo not drawn)
    i, -2, 7, -4, -6, -5, 0, 2
CN(CC(=O)NC1CCCCCCC1)S(=O)(=O)c1cccc2cccnc12
    i, -3, -6, -3, -8, -12, -1, -6
O=C(O)C1=C[C@H](c2ccc(C(F)(F)F)cc2)C[C@H](OCc2ccc(CO)cc2)O1
    i, -2&8, 1, 29, -3[16.7 µM], 14, -3, -1
COC(=O)/C=C(\Oc1ccccc1)C1(O)CCCCC1
    i, 1, -5, -15, 13, 18, -1, -2
Cc1cccc(NC(=O)CSc2nnc(CNC(=O)c3ccco3)n2C)c1
    i, -18, 6, -8, 2, -4, 0, 0
CC(C)CCN1CCN(Cc2cccn2-c2ccc(Cl)cn2)CC1CCO (stereo not drawn)
    nt, nt, 15, 7, 6, 9, -2, 2
C/C(CC(=O)Nc1ccc(N(C)C)cc1)=N\NC(=O)c1ccc(Cl)cc1Cl
    i, -13, -6, -2, -6, nt, 4, 2

3 entries from above, in markdown:
| Molecule | Rce1 inhib | Yeast UUG start | eIF4H FP inh | PABP FP inh | Env fusion inh | CSC inhib | MT1-MMP act inh | MT1-MMP act inh RFP |
| --- | --- | --- | --- | --- | --- | --- | --- | --- |
| CC(C)N1CCN(Cc2ccc(-c3ccccc3)cc2)CC1CCO (stereo not drawn) | i | -8 | -18 | -12 | -5 | 54 | 0 | 0 |
| COc1ccc(F)c(CN2CCCC(CNS(=O)(=O)c3cccc4cccnc34)C2)c1 (stereo not drawn) | i | -9 | 5 | -2 | 0 | -7 | 0 | -1 |
| CSc1cccc(NC(=O)C2CCN(S(=O)(=O)c3cnc[nH]3)CC2)c1 | i | -36 | -5 | 0 | -5 | -3 | -2 | -1 |

Next part.
Values run as follows: Rce1 inhib, Yeast UUG start, eIF4H FP inh, PABP FP inh, Env fusion inh, CSC inhib, MT1-MMP act inh, MT1-MMP act inh RFP
S=C1NC2(CCCCC2)Cc2ccccc21
    i, -29, -9, -16, -18, 2, -1, -1
CCOc1ccc(NC(=O)CSc2nnc(C3CC3)n2C)cc1S(=O)(=O)N1CCCCC1
    nt, -7, nt, nt, nt, 3, 2, -2
Cc1cc(C)n(CCN(C)C(=O)C2CCC(=O)N(CCc3cccc(F)c3)C2)n1 (stereo not drawn)
    i, nt, nt, nt, 2, -10, 0, 6
O=C(CSc1n[nH]c(=O)n1Cc1ccco1)c1ccc2c(c1)OCCO2
    i, -1, -4, -3, -312, -2, 2, 2
Cc1ccc2nc(C(O)C(O)c3nc4ccc(C)cc4[nH]3)[nH]c2c1 (stereo not drawn)
    i, -33, -1, 11, -76, -12, -1, 5
Cc1ccc(Nc2nc(-c3ccc(F)cc3)cs2)nc1
    i, -9, -4, 0, -174, nt, -2, -6
Cc1ccc2c(c1)Oc1ccc(NC(=O)CCl)cc1C(=O)N2
    i, nt, -4, -17, 22, 45, -6, -15
O=[N+]([O-])c1c(-c2cn[nH]c2)n[nH]c1-c1cn[nH]c1
    i, nt, -3, 18, -20, -16, 0, 1
O=C(CSc1ccccc1)Nc1cc(Cl)ccc1Oc1ccccc1
    i, -3, -8, -1, 11, 21, -6, -4
Cn1c(CCNC(=O)C2CCCCC2)nc2cc(NC(=O)c3cccs3)ccc21
    i, nt, -2, -1, -3, nt, 5, -1
CSc1ccc(/C=C/C(=O)OCC(=O)NC2CCS(=O)(=O)C2)cc1 (stereo not drawn)
    nt, -4, nt, nt, -19, nt, 0, -2
CC(C)(C)OC(=O)NCCCCCNC(=O)c1nc[nH]c1C(=O)N1CCN(C(=O)OC(C)(C)C)CC1
    nt, -12, nt, nt, 17, -5, 5, 1
CSc1nn2c(C(F)(F)F)cc(C(F)(F)F)nc2c1C(=O)O
    i, nt, 5, 8, -7, 8, 2, 4
COc1cccc(C(=O)Nc2cnn(C(C)C)c2)c1
    i, nt, 4, 3, -15, 5, 0, 0
CCn1c2ccccc2c2nc3cc(S(=O)(=O)N4CCOCC4)ccc3nc21
    i, 7, -3, 26, nt, nt, 3, -6

As a short view, part of the list above:
Values run as follows: Rce1 inhib, Yeast UUG start, eIF4H FP inh, PABP FP inh, Env fusion inh, CSC inhib, MT1-MMP act inh, MT1-MMP act inh RFP
CC1=C(C)CC(C(=O)NCCc2ccccc2)C(C(=O)O)C1 (stereo not drawn)
    i, -9, 2, -4, -9, -17, 1, 3
O=C(Nc1ccccc1N1CCCC1)c1cc(=O)[nH]c2ccccc12
    nt, 5, nt, nt, -11, nt, -2, -3

Additional entries
Values run as follows: Rce1 inhib, Yeast UUG start, eIF4H FP inh, PABP FP inh, Env fusion inh, CSC inhib, MT1-MMP act inh, MT1-MMP act inh RFP
CCOC(=O)CN(C(=O)CSc1nnc(Cc2ccccc2)n1-c1ccc(C)cc1)c1ccccc1
    i, 0, 0, -3, nt, 8, -4, -6
COC(=O)c1ccncc1C(=O)Nc1ccc(Oc2ncc(C(F)(F)F)cc2Cl)cc1
    i, nt, -9, -1, 6, -16, 7, 4
COc1ccc(CCN2C(=O)CC(NNC(=O)c3ccccc3Br)C2=O)cc1 (stereo not drawn)
    i, -13, -5, -2, 5, 4, 4, 3
CCOc1cc(/C=N/NC(=O)N/N=C/c2ccc(O)c(OCC)c2)ccc1O
    i, nt, nt, nt, -392, 59, nt, nt
COc1ccc(CN2CCN(CC=C(C)C)C(CCO)C2)cc1Cn1cncn1 (stereo not drawn)
    i, nt, 9, -2, -21, -6, -1, -1
CCN(CC)CCN(C(=O)c1ccc(C(=O)c2ccccc2)cc1)c1nc2cc3c(cc2s1)OCO3
    i, 11, -14, 2, -1, -7, -2, 3
CCN(CC(=O)NCc1ccc(F)cc1)C(=O)COc1ccccc1[N+](=O)[O-]
    nt, 14, nt, nt, -12, -30, -1, 0
Cc1ccc(S(=O)(=O)N(C)/N=C/C=C/c2ccccc2)cc1
    i, -9, -2, 16, -23, -3, 4, 4
CCCCNC(=O)c1ccc(CS(=O)(=O)c2ccc(C)cc2)o1
    i, 3, 3, 6, 21, -16, 0, 1
Cn1cccc1CC(=O)N/N=C/c1cccc2ccccc12
    i, -24, 8, 0, nt, 5, -2, -3
CCOC(=O)c1[nH]c2ccccc2c1NC(=S)Nc1ccccc1
    i, -16, 6, 19, -22, 3, -4, -1
CCOC(=O)C1CCN(C(=O)c2cc3cc(C)ccc3[nH]2)CC1
    i, -14, -7, -5, -35, -4, 0, 0
Cc1ccccc1-n1c(SCC(=O)N2CCN(c3ccccc3)CC2)nnc1-c1ccncc1
    i, -10, 2, 4, -96, -5, -2, -1
CC1(C)O[C@@H]2[C@H](O1)[C@@H](COS(=O)(=O)O)O[C@H]2n1ccc(=O)[nH]c1=O
    nt, -13, nt, nt, 0, -20, 2, 6
O=C(Cn1nc(Cc2cccnc2)c2ccccc2c1=O)N1CCN(C(=O)c2ccco2)CC1
    i, 1, -1, 12, 4, -4, 6, 6
Cc1cccc(C)c1-n1c(C)cc(/C=N\NC(=O)CC(=O)NC2CCCCC2)c1C
    i, nt, -11, 11, -17, 33, -3, -7
O=C(CSCC(=O)N1CCOCC1)Nc1nc(-c2ccc3c(c2)OCO3)cs1
    i, -8, 0, 2, -22, -13, 4, -1
CN(C(=O)c1cccc(NC(=O)Cc2ccc(NC(=O)C3CCCN(C(=O)CCc4ccccc4)C3)cc2)c1)C1CCCC1 (stereo not drawn)
    nt, -3, nt, nt, 39, nt, 3, -28

Sorted by SMILES length (rising): part of the list above
Values run as follows: Rce1 inhib, Yeast UUG start, eIF4H FP inh, PABP FP inh, Env fusion inh, CSC inhib, MT1-MMP act inh, MT1-MMP act inh RFP
CCOc1cc(/C=N/NC(=O)N/N=C/c2ccc(O)c(OCC)c2)ccc1O
    i, nt, nt, nt, -392, 59, nt, nt
CCN(CC(=O)NCc1ccc(F)cc1)C(=O)COc1ccccc1[N+](=O)[O-]
    nt, 14, nt, nt, -12, -30, -1, 0
CC1(C)O[C@@H]2[C@H](O1)[C@@H](COS(=O)(=O)O)O[C@H]2n1ccc(=O)[nH]c1=O
    nt, -13, nt, nt, 0, -20, 2, 6
